# Screens from PubChem BioAssay.
# MT1-MMP act inh: inhibitors of human MT1-MMP activation; P50281; HT1080 RFP-PRO-GFP cells, GFP/RFP ratio fluorescence, overnight; percent of plate control window, DMSO zero; GFP/RFP ratio change, % at 20 µM; 360,000 tested, 0.061% active; AID 651647;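 active means GFP/RFP ratio change of at least 30% with cell ATP level not reduced by more than half and red fluorescence within 50% of control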; further: strong numbers were not always called active
#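 system = RFP-PRO-GFP reporter HT1080 cells | dosing = 20 µM single dose, 1% DMSO | timing = overnight cell settling, then overnight compound exposure, 37 °C, 5% CO2 | read-out basis = GFP/RFP fluorescence ratio | controls = DMSO and RFP-L50D-GFP cell wells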
# HIV Env fusion: HIV envelope-mediated fusion inhibition | HeLa-JRFL Env/CEM21 cell fusion, luciferase | inhibition, % at 12.3 µM | 360,000 tested, 1.1% active | AID 651610;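 active means mean replicate inhibition score of at least 50 and every replicate individually at or above 50; inconclusive means only one of the two criteria met; inactive means mean below 50 and not all replicates reaching 50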;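 further: 0% = plate neutral controls and 100% = maraviroc near 300 nM; one replicate is shown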
# MT1-MMP act inh RFP: recorded beside MT1-MMP act inh, whose call it bears; RFP signal change, %; measured here: RFP expression control read;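 0 = vehicle wells; hits needed this value within 50% of zero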
# An asterisk follows results filed as active; i = inactive; ? = inconclusive; [ ] = dose if it differs, or a comment.
MT1-MMP act inh,MT1-MMP act inh RFP,HIV Env fusion,Compound
-3,1,13,O=C(O)CC1Cc2ccccc2C1C(=O)O (stereo unspecified)
3,2,-26,CCOC(=O)[C@]12CCC=C1N(Cc1ccc(Cl)cc1Cl)C(=O)[C@H](CC(=O)NCCCN1CCCC1=O)C2
7,4,26,O=C1C=C(O)c2[nH]c(=O)ccc2C1=O
0,3,6,CC(=O)N1Cc2cc(C(=O)NCC(F)(F)F)nc(-c3cccc(-c4cccnc4)c3)c2[C@H]1CCO
-1,3,2,CN(Cc1ccccc1)C(=O)CCN1C(=O)c2cccc([N+](=O)[O-])c2C1=O
-2,-11,?,CCCCCCCCN1C(=O)[C@H](CC(=O)NCc2cccc3ccccc23)C[C@@]2(C(=O)OC)CCCCC=C12
-14,-15,17,CCNC(=O)c1cc2c(c(-c3cccc(-c4cc5ccccc5o4)c3)n1)[C@H](CCO)N(C(=O)NC(C)C)C2
2,6,11,CC(C)NC(=O)C1(C)CN(S(C)(=O)=O)CC(=O)N1CCc1ccccc1 (stereo unspecified)
7,7,-22,O=C1NC[C@@H](CCCCN2C[C@H](Cc3ccc(O)cc3)N(Cc3ccccc3)C(=O)C2=O)N(CCC2CCCCC2)C1=O
1,-14,3,CC(C=CC(O)=C1C(=O)CNC1=O)=C[C@@H](C)C1OC2(C)OC(C(=O)C3O[C@@]32C)C1C (stereo partly specified)
-22,-13,-4,Cc1ccc(NCSc2ccc(Cl)cc2)cc1
3,-8,72*,CC(C)(C)OC(=O)N1CCc2onc(-c3ccc(Br)cc3)c2C1=O
-1,-1,-12,O=C(C(=O)N1CCN(c2ccncc2)CC1)c1cccc(Br)c1
18,0,-70,COC(=O)C1=CN(c2ccc(OC)cc2OC)C(N)=C(C#N)C1c1cccc([N+](=O)[O-])c1 (stereo unspecified)
7,-6,26,COC(=O)C1(C)COP(=O)(Nc2ccc(OC)cc2)OC1 (stereo unspecified)
-1,-1,22,CC1(C)CN(Cc2cccnc2)C(=O)[C@H]1CC(=O)Nc1ccc(Br)cc1
-9,0,57*,CCn1c2ccccc2c2cc(/C=C(/C#N)C(N)=S)ccc21
4,-1,8,COC(=O)[C@]12CCCCC=C1N(Cc1ccco1)C(=O)[C@H](CC(=O)NCC1CCCCC1)C2
-1,-14,34,Cc1ccc([N+](=O)[O-])cc1CN1CCN(c2ncc(Cc3ccccc3)cn2)CC1
-2,-2,-2,CCCCNC(=O)C(NC(=O)c1ccc2ccccc2c1)C(=O)c1ccccc1 (stereo unspecified)
6,6,16,COC(=O)c1cn(-c2nc3ccccc3s2)nn1
3,-3,35,COc1ccc([C@H]2CC(=O)C[C@@H](CCn3cc(C(C)C)nn3)O2)cc1
-1,-5,12,COC(=O)[C@]12CCCCC=C1N(Cc1ccco1)C(=O)[C@H](CC(=O)NCCCCc1ccccc1)C2
3,0,26,CCS(=O)(=O)N1Cc2cc(C(=O)N(C)C)nc(-c3cccc(-c4ccc(F)cc4)c3)c2[C@@H]1CCO
1,0,11,COc1cccc(C(=O)N2CCC[C@H]2C(=O)N2CCC[C@H]2C(=O)N(C)Cc2ccccc2)c1
-2,1,-74,CC(C)C[C@@H](CN1CCC[C@H]1CN1C(=O)C(=O)NC[C@@H]1Cc1ccc(O)cc1)N1C[C@H](Cc2ccc(O)cc2)N(CCc2ccccc2)C(=O)C1=O
-10,0,-12,Cc1ccc(C(=O)N[C@H](C(=O)Nc2ccc(N3CCOCC3)cc2)C(C)C)cc1
3,2,-25,O=S(=O)(Nc1ccc(NS(=O)(=O)c2ccccc2)cc1)c1ccccc1
-1,-1,-33,O=C1C(=Cc2ccc(F)cc2)Cc2ccccc21
3,5,4,S=C1SCCN1Cc1ccccc1

# Ordered by molar mass (rising): 23 of the compounds above.
MT1-MMP act inh,MT1-MMP act inh RFP,HIV Env fusion,Compound
7,4,26,O=C1C=C(O)c2[nH]c(=O)ccc2C1=O
-3,1,13,O=C(O)CC1Cc2ccccc2C1C(=O)O (stereo unspecified)
-1,-1,-33,O=C1C(=Cc2ccc(F)cc2)Cc2ccccc21
6,6,16,COC(=O)c1cn(-c2nc3ccccc3s2)nn1
-22,-13,-4,Cc1ccc(NCSc2ccc(Cl)cc2)cc1
-9,0,57*,CCn1c2ccccc2c2cc(/C=C(/C#N)C(N)=S)ccc21
7,-6,26,COC(=O)C1(C)COP(=O)(Nc2ccc(OC)cc2)OC1 (stereo unspecified)
3,-3,35,COc1ccc([C@H]2CC(=O)C[C@@H](CCn3cc(C(C)C)nn3)O2)cc1
-1,-1,-12,O=C(C(=O)N1CCN(c2ccncc2)CC1)c1cccc(Br)c1
2,6,11,CC(C)NC(=O)C1(C)CN(S(C)(=O)=O)CC(=O)N1CCc1ccccc1 (stereo unspecified)
3,2,-25,O=S(=O)(Nc1ccc(NS(=O)(=O)c2ccccc2)cc1)c1ccccc1
3,-8,72*,CC(C)(C)OC(=O)N1CCc2onc(-c3ccc(Br)cc3)c2C1=O
-1,-1,22,CC1(C)CN(Cc2cccnc2)C(=O)[C@H]1CC(=O)Nc1ccc(Br)cc1
18,0,-70,COC(=O)C1=CN(c2ccc(OC)cc2OC)C(N)=C(C#N)C1c1cccc([N+](=O)[O-])c1 (stereo unspecified)
1,0,11,COc1cccc(C(=O)N2CCC[C@H]2C(=O)N2CCC[C@H]2C(=O)N(C)Cc2ccccc2)c1
4,-1,8,COC(=O)[C@]12CCCCC=C1N(Cc1ccco1)C(=O)[C@H](CC(=O)NCC1CCCCC1)C2
0,3,6,CC(=O)N1Cc2cc(C(=O)NCC(F)(F)F)nc(-c3cccc(-c4cccnc4)c3)c2[C@H]1CCO
-1,-5,12,COC(=O)[C@]12CCCCC=C1N(Cc1ccco1)C(=O)[C@H](CC(=O)NCCCCc1ccccc1)C2
3,0,26,CCS(=O)(=O)N1Cc2cc(C(=O)N(C)C)nc(-c3cccc(-c4ccc(F)cc4)c3)c2[C@@H]1CCO
-14,-15,17,CCNC(=O)c1cc2c(c(-c3cccc(-c4cc5ccccc5o4)c3)n1)[C@H](CCO)N(C(=O)NC(C)C)C2
-2,-11,?,CCCCCCCCN1C(=O)[C@H](CC(=O)NCc2cccc3ccccc23)C[C@@]2(C(=O)OC)CCCCC=C12
7,7,-22,O=C1NC[C@@H](CCCCN2C[C@H](Cc3ccc(O)cc3)N(Cc3ccccc3)C(=O)C2=O)N(CCC2CCCCC2)C1=O
-2,1,-74,CC(C)C[C@@H](CN1CCC[C@H]1CN1C(=O)C(=O)NC[C@@H]1Cc1ccc(O)cc1)N1C[C@H](Cc2ccc(O)cc2)N(CCc2ccccc2)C(=O)C1=O

# New compounds follow.
MT1-MMP act inh,MT1-MMP act inh RFP,HIV Env fusion,Compound
0,-3,11,N=c1c(S(=O)(=O)c2ccc(Br)cc2)cc2c(=O)n3ccccc3nc2n1CCN1CCOCC1
-3,-1,-27,NS(=O)(=O)c1ccc(NC(=O)CCCCCN2C(=O)c3ccccc3C2=O)cc1
1,4,-13,CC(C)N1C(=O)c2ccccc2NC(=O)C1C(=O)NCc1cccc(C(F)(F)F)c1 (stereo unspecified)
2,5,-46,COCCN1C(=O)COc2ccccc2C1C(=O)Nc1c(C)cccc1C (stereo unspecified)
3,-2,6,Cc1cccc(C)c1NC(=O)C1(C)CSCC(=O)N1Cc1cccc(C(F)(F)F)c1 (stereo unspecified)
3,6,0[16.7 µM],COCC(=O)N1C[C@@H](C)[C@@H](OC)CN(C)C(=O)c2ccc(NC(=O)c3cnccn3)cc2OC[C@H]1C
0,3,-45,COc1ccc(C(C(=O)NC2CCCC2)n2c(C3CCN(C(C)=O)CC3)nc3ccccc32)cc1 (stereo unspecified)
-4,-5,19,CCOC(=O)[C@]12CCCC=C1N(CCC1=CCCCC1)C(=O)[C@H](CC(=O)NCc1cccs1)C2
-7,-16,-9,COc1ccc(OCCN2CCN(S(=O)(=O)c3ccccc3C#N)CC2)cc1
-22,-19,-42,Cc1cccc(C)c1NC(=O)C(c1ccccc1F)n1c(=O)c(-c2cc3ccccc3[nH]2)nc2ccccc21 (stereo unspecified)
1,2,6,CC1C(=O)C(C)C(c2ccccc2)N(N=O)C1c1ccccc1 (stereo unspecified)
6,-6,-17,CCOC(=O)[C@]12CCC=C1N(Cc1ccc3c(c1)OCO3)C(=O)[C@H](CC(=O)NCc1cccc(C(F)(F)F)c1)C2
-6,-10,11,COC(=O)[C@]12CCCCC=C1N(Cc1cccc3ccccc13)C(=O)[C@H](CC(=O)NCCc1ccccc1OC)C2
-6,-2,-22,C#CC1(O)CCC2C3CCc4cc(O)cc(C)c4C3CCC21C (stereo unspecified)
-2,-1,-87,CC(=NNC(N)=O)C1CC2CCC1CC2 (stereo unspecified)
-5,-6,-8,O=C(COC(=O)c1ccc(F)c(S(=O)(=O)N2CCOCC2)c1)c1ccc(Br)cc1
-3,-5,14,CCc1nc2c(OCc3ccc(F)cc3)cccn2c1N(C)C(=O)CC(C)C
-9,-6,-21,CN(C)CCC(O)(c1ccccc1)c1ccccc1Cl (stereo unspecified)
3,7,37,CC1(C(=O)NCc2ccccc2)CSCC(=O)N1CCc1c[nH]c2ccccc12 (stereo unspecified)
2,2,18,Cc1ccc(C2(SCC(N)C(=O)O)c3ccccc3-c3ccccc32)cc1 (stereo unspecified)
-3,-3,13,COc1ccc(S(=O)(=O)NC(=O)C2(C)CCN2C(=O)CC2CC2)cc1 (stereo unspecified)
0,6,22,O=C(NCc1ccc(F)cc1F)[C@@H]1CCCN1C(=O)[C@@H]1CCCN1
5,3,-16,COc1cc2nn(-c3ccccc3N)nc2cc1OC
-2,4,4,CCOC(=O)Nc1ccc2c(CN3CCN(S(=O)(=O)c4ccccc4F)CC3)cc(=O)oc2c1
1,2,30,COC(=O)C[C@H]1C=C[C@H](NC(=O)Nc2ccccc2OC)[C@@H](CO)O1
-1,3,-42,N#Cc1ccc(C(C(=O)Nc2ccc3c(c2)OCCO3)n2c(=O)c(-c3ccco3)nc3ccccc32)cc1 (stereo unspecified)
2,7,21,NC(CSC1(c2ccccc2)c2ccccc2-c2ccccc21)C(=O)O (stereo unspecified)
4,4,-9,O=C(NN=Cc1cccc([N+](=O)[O-])c1)c1cccc2ccccc12
-1,-6,9,CN(C)CCOC1(Cc2ccc(F)cc2)CCC(C(C)(C)C)CC1 (stereo unspecified)
-5,2,-15,Cc1ccc(Cc2c(-c3ccccc3)nc3c(C)cc(Br)cn23)cc1

# A draw from above in order of formula weight, falling.
MT1-MMP act inh,MT1-MMP act inh RFP,HIV Env fusion,Compound
-22,-19,-42,Cc1cccc(C)c1NC(=O)C(c1ccccc1F)n1c(=O)c(-c2cc3ccccc3[nH]2)nc2ccccc21 (stereo unspecified)
2,2,18,Cc1ccc(C2(SCC(N)C(=O)O)c3ccccc3-c3ccccc32)cc1 (stereo unspecified)
-2,-1,-87,CC(=NNC(N)=O)C1CC2CCC1CC2 (stereo unspecified)

# Following part
MT1-MMP act inh,MT1-MMP act inh RFP,HIV Env fusion,Compound
-8,-1,-21,Cc1csc(NC(=O)CSc2nc3nc(C)cc(C)n3n2)n1
-6,-2,-6,CC(C)(C)NC(=O)C(c1ccncc1)n1c(=O)c(-c2ccccc2)nc2ccccc21 (stereo unspecified)
0,2,5,O=C1NC[C@@H](CCCCN2C[C@H](Cc3ccccc3)N(Cc3ccccc3)C(=O)C2=O)N(Cc2ccccc2)C1=O
-8,-12,85*,COC(=O)C1(C(=O)OC)C[C@H](c2ccc(OC)cc2)N(Cc2ccccc2OC)[C@@H]1c1ccccc1
-2,5,-8,CCCCNC(=O)C1c2ccccc2OCC(=O)N1CCOC (stereo unspecified)
-5,-3,-3,O=C1NC[C@H](Cc2ccccc2)N(C[C@@H]2CCCN2C[C@H](Cc2ccc(O)cc2)N2C[C@H](Cc3ccccc3)N(CCc3ccccc3)C(=O)C2=O)C1=O
3,3,-79,O=C(C[n+]1cccc(C(=O)Nc2ccccc2)c1)c1ccc(Cl)cc1
1,-4,17,Cc1ccc(NC(=O)CSc2nnnn2C2CC2)cc1S(=O)(=O)N1CCOCC1
2,0,-19,Cc1ccc([C@H]2C[C@@H](n3cc(C4CC4)nn3)[C@H](O)CN2C(=O)C2CCCCC2)cc1
8,-3,89*,Cc1nc2ccc(C(=O)N3c4ccccc4N=C(c4ccc(C(F)(F)F)cc4)C3C(=O)NC(C)(C)C)cc2[nH]1 (stereo unspecified)
-1,10,i,CCOC(=O)c1c(C)c(C)n2c1NC(=O)C2
4,10,-4,CC(=O)OCC(C)n1c(=O)c2ccccc2n1C(C)=O (stereo unspecified)
-4,3,27,CCOC(=O)c1ccc(-c2ccc(N3C(c4cccc(OC)c4)=Cc4ccc(F)cc4C3CC(C)=O)cc2)cc1F (stereo unspecified)
1,4,-1,CCc1cccc2c(C(=O)CN3C(=O)C(=O)N(C4CCCC4)C3=O)c[nH]c12
2,0,4,C[C@H](O)[C@@H]1CN2CCc3c([nH]c4ccccc34)[C@@H]2C[C@@H]1N(C)C(=O)Nc1ccc(F)cc1
3,6,-24,O=C1NC[C@H](CCCCN2CCN(CCc3ccccc3)C(=O)C2=O)N(CC2CCCCC2)C1=O

# The list is partial; count on the stated rates, not on these rows.
